Source: PubChem BioAssay
Vaccinia stage: Vaccinia orthopox stage-specific inhibition. AID 1053133. Vaccinia-infected cells, mCherry/Venus stage reporter fluorescence; active compounds read low; some inactives read as strong as hits. 0.01% of 89,000 active. activity change (mCherry), % (concentration not given with the values);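 active = mCherry past -33% and 40 or more points under the early reporter, replicates agreeing; inconclusive = past -33% without that gap or agreement; tested in A549 cells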;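 also: scaled between vehicle wells and reference inhibitor wells; 23 nL library stock went into each well; one replicate is shown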
Vaccinia stage Venus: second read-out of Vaccinia stage, no call of its own (marks repeat the call); activity change (Venus), %; measured here: Venus reporter, other viral stage;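 negative = less Venus signal; first of two replicates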
* marks the source's active call; other numbers are inactive results; u = inconclusive; x = not tested or not shown. The list is partial; the hit share may differ from the screen's.

Values run as follows: Vaccinia stage | Vaccinia stage Venus
COCc1cn(CC[C@@H]2CC[C@H](NC(=O)Cc3cccnc3)[C@@H](CO)O2)nn1
→ 15 | 20
O=C(NCC(F)(F)F)[C@@H]1[C@@H](CO)[C@@H]2Cn3c(cccc3=O)[C@@H]2N1C(=O)c1ccccc1F
→ 6 | 4
COc1ccc(NC(=O)Nc2ccc3c(c2)CC(=O)N([C@H](C)CO)C[C@@H](C)[C@H](CN(C)S(=O)(=O)c2ccc(C)cc2)O3)cc1
→ 21 | 17
Cc1ccc(S(=O)(=O)N[C@H]2CC[C@@H](CCNC(=O)C3CC3)O[C@@H]2CO)cc1
→ -34 | -34
COCCNC(=O)C[C@@H]1CC[C@H](NS(=O)(=O)c2ccc(C)cc2)[C@@H](CO)O1
→ -2 | -8
C[C@H]1CN([C@@H](C)CO)C(=O)c2cc(NC(=O)CCC(F)(F)F)ccc2O[C@@H]1CN(C)Cc1ccc(C(=O)O)cc1
→ 7 | -2
O=C(NC1Cc2ccccc2C1)[C@@H]1N[C@@H]2c3ccc(C4=CCCCC4)c(=O)n3C[C@@H]2[C@H]1CO
→ 7 | 12
C[C@H]1CN([C@@H](C)CO)C(=O)c2cc(NC(=O)CCC(F)(F)F)ccc2O[C@H]1CN(C)C(=O)Nc1cccc2ccccc12
→ 9 | 4
O=C(C1CCC1)N1C[C@H]2[C@@H](c3ccccc31)[C@@H](CO)N2C(=O)Cc1ccccn1
→ 10 | 16
CCNC(=O)C[C@H]1CC[C@H]2[C@@H](COC[C@H](O)CN2Cc2ccc(Cl)c(Cl)c2)O1
→ -17 | -16
COc1ccc(NC(=O)Nc2ccc3c(c2)[C@H]2C[C@H](CC(=O)NCC(F)(F)F)O[C@H](CO)[C@H]2O3)cc1
→ 11 | 4
CC(C)NC[C@@H]1[C@H](c2ccc(C3=CCCCC3)cc2)[C@H](CO)N1S(C)(=O)=O
→ -34 | -7
C/C=C/c1cnc2c(c1)C(=O)N([C@H](C)CO)C[C@@H](C)[C@@H](CN(C)C(=O)Cc1ccccc1)O2
→ 22 | 5
O=C(C[C@@H]1CC[C@@H](NC(=O)c2ccc3c(c2)OCO3)[C@H](CO)O1)NCc1ccc(F)cc1
→ 2 | 8
C[C@@H]1CN([C@H](C)CO)C(=O)c2cc(NC(=O)Cc3ccccc3)ccc2O[C@@H](C)CCCCO[C@@H]1CN(C)C
→ 3 | -2
C[C@@H]1CN([C@@H](C)CO)C(=O)Cc2cc(NC(=O)Cc3ccccc3)ccc2O[C@H]1CN(C)Cc1ccc(-c2ccccc2)cc1
→ u | x
Cc1ccc(S(=O)(=O)Nc2ccc3c(c2)C(=O)N([C@H](C)CO)C[C@H](C)[C@@H](CN(C)Cc2ccc(Cl)c(Cl)c2)OCCCC[C@H](C)O3)cc1
→ u | x
O=C(N[C@H]1CC[C@H](CCNC(=O)C2CCCC2)O[C@H]1CO)c1ccccn1
→ -2 | 6
C[C@@H]1CN([C@H](C)CO)S(=O)(=O)c2ccc(-c3ccc(C#N)cc3)cc2O[C@H]1CN(C)C
→ -9 | -6
COc1cccc(C(=O)N2C[C@H]3[C@@H](c4ccccc42)[C@H](CO)N3C(C)=O)c1
→ 2 | 9
CC(C)c1cn(CC[C@@H]2CC[C@H](NS(=O)(=O)c3ccccc3)[C@H](CO)O2)nn1
→ 10 | 19
CO[C@@H](CN(C)S(=O)(=O)c1cccc(Cl)c1)[C@H](C)CN([C@@H](C)CO)S(=O)(=O)c1cccc(Cl)c1
→ u | x
Cc1noc(C)c1S(=O)(=O)N(C)C[C@@H]1OCCCC[C@@H](C)Oc2ccc(NC(=O)NC3CCCCC3)cc2C(=O)N([C@@H](C)CO)C[C@H]1C
→ -13 | -8
CCCC(=O)Nc1ccc2c(c1)C(=O)N(C)C[C@@H](OC)[C@H](C)CN(C(=O)c1cccnc1)[C@@H](C)CO2
→ 4 | 9
OC[C@@H]1[C@@H](c2ccc(C#Cc3cccnc3)cc2)[C@H]2CN(Cc3ccccc3F)CCCCN12
→ -17 | -31
C[C@@H]1CN([C@@H](C)CO)C(=O)c2ccccc2-c2ccccc2CO[C@H]1CN(C)C(=O)CCC(F)(F)F
→ 18 | 6
CO[C@@H]1CN(C)C(=O)c2cc(NC(C)=O)ccc2OC[C@H](C)N(C(=O)Cc2ccccn2)C[C@H]1C
→ 0 | 3
O=C(Nc1ccccc1)N1C[C@H]2[C@@H](c3ccccc31)[C@H](CO)N2C(=O)c1ccccc1F
→ 14 | 14
C[C@@H]1CN([C@H](C)CO)C(=O)c2cc(NC(=O)C3CCCCC3)ccc2O[C@@H]1CN(C)C(=O)NC1CCCCC1
→ 15 | 2
Cc1ccc(S(=O)(=O)Nc2ccc3c(c2)C(=O)N([C@H](C)CO)C[C@@H](C)[C@H](CN(C)C(=O)Nc2ccc(C(F)(F)F)cc2)OCCCC[C@H](C)O3)cc1
→ -27 | -20

Random excerpt: 4 compounds from above.
Values run as follows: Vaccinia stage | Vaccinia stage Venus
C[C@@H]1CN([C@@H](C)CO)C(=O)Cc2cc(NC(=O)Cc3ccccc3)ccc2O[C@H]1CN(C)Cc1ccc(-c2ccccc2)cc1
→ u | x
Cc1noc(C)c1S(=O)(=O)N(C)C[C@@H]1OCCCC[C@@H](C)Oc2ccc(NC(=O)NC3CCCCC3)cc2C(=O)N([C@@H](C)CO)C[C@H]1C
→ -13 | -8
CCCC(=O)Nc1ccc2c(c1)C(=O)N(C)C[C@@H](OC)[C@H](C)CN(C(=O)c1cccnc1)[C@@H](C)CO2
→ 4 | 9
Cc1ccc(S(=O)(=O)Nc2ccc3c(c2)C(=O)N([C@H](C)CO)C[C@@H](C)[C@H](CN(C)C(=O)Nc2ccc(C(F)(F)F)cc2)OCCCC[C@H](C)O3)cc1
→ -27 | -20

Following part:
Values run as follows: Vaccinia stage | Vaccinia stage Venus
COc1ccc(S(=O)(=O)N(C)C[C@H]2OCCCC[C@@H](C)Oc3ccc(NC(=O)c4ccncc4)cc3C(=O)N([C@@H](C)CO)C[C@@H]2C)cc1
→ 13 | 5
Cc1ccc(S(=O)(=O)NCC[C@@H]2CC[C@H](NS(=O)(=O)c3ccccc3Cl)[C@@H](CO)O2)cc1
→ u | x
O=C(C[C@H]1CC[C@H]2[C@@H](COC[C@@H](O)CN2C(=O)c2cccnc2)O1)NCC1CC1
→ 23 | 13
Cc1ccc(-c2cnc3c(c2)C(=O)N([C@H](C)CO)C[C@@H](C)[C@H](CN(C)CC2CCOCC2)O3)cc1
→ -15 | -11
N#C[C@H]1[C@@H](c2ccc(-c3cccc(F)c3)cc2)[C@@H](CO)N1C(=O)NC1CCCCC1
→ u | x
O=C(Nc1ccc(Cl)cc1)N[C@@H]1CC[C@H](CCn2cc(C3(O)CCCC3)nn2)O[C@@H]1CO
→ 5 | 3
CCCN1[C@@H]2Cn3c(ccc(-c4cccc(C(=O)N(C)C)c4)c3=O)[C@H]1[C@@H](C(=O)OC)[C@@H]2CO
→ 12 | 12
COC(=O)C[C@H]1CC[C@H]2[C@@H](COC[C@@H](O)CN2C(=O)Nc2ccccc2OC)O1
→ 6 | 0
C[C@H](CO)N1C[C@H](C)[C@@H](CN(C)Cc2ccc(C(=O)Nc3ccccc3N)cc2)Oc2c(cccc2N(C)C)C1=O
→ -7 | -1
C[C@H]1CN([C@@H](C)CO)C(=O)c2cc(NC(=O)Nc3ccc4c(c3)OCO4)ccc2O[C@H]1CN(C)Cc1ccc(C(F)(F)F)cc1
→ -22 | -17
CC(C)NC(=O)N1C[C@H]2[C@@H](c3ccccc31)[C@H](CO)N2C(=O)NC(C)C
→ 21 | 14
CCCNC(=O)C[C@@H]1CC[C@@H]2[C@@H](COc3ccc(NC(=O)c4ccc5c(c4)OCO5)cc3C(=O)N2C)O1
→ 8 | 9
O=C(C1=C[C@H](C2CCCCC2)C[C@H](OCc2ccc(CO)cc2)O1)N1CCN(Cc2ccccc2)CC1
→ u | x
CC(C)C#Cc1ccc2c(c1)O[C@@H](CN(C)C(=O)CN(C)C)[C@@H](C)CN([C@H](C)CO)S2(=O)=O
→ -13 | -3
CCNC(=O)C[C@H]1CC[C@H]2[C@@H](COC[C@@H](O)CN2Cc2ccc(Cl)c(Cl)c2)O1
→ -3 | 0

In a second layout: entries from further up
Cc1ccc(S(=O)(=O)Nc2ccc3c(c2)C(=O)N([C@H](C)CO)C[C@H](C)[C@@H](CN(C)Cc2ccc(Cl)c(Cl)c2)OCCCC[C@H](C)O3)cc1
  Vaccinia stage: u
  Vaccinia stage Venus: x

O=C(N[C@H]1CC[C@H](CCNC(=O)C2CCCC2)O[C@H]1CO)c1ccccn1
  Vaccinia stage: -2
  Vaccinia stage Venus: 6

C[C@@H]1CN([C@H](C)CO)S(=O)(=O)c2ccc(-c3ccc(C#N)cc3)cc2O[C@H]1CN(C)C
  Vaccinia stage: -9
  Vaccinia stage Venus: -6

The list continues.
Compound	Vaccinia stage	Vaccinia stage Venus
CN(C)C(=O)c1cccc(-c2ccc([C@H]3[C@@H](CO)N4CCCCN(CCC(F)(F)F)C[C@H]34)cc2)c1	-4	-2
C[C@H](CO)N1C[C@H](C)[C@H](CN(C)C(=O)C2CCCCC2)OCCCC[C@H](C)Oc2ccc(NC(=O)Nc3ccc4c(c3)OCO4)cc2C1=O	-28	-25
CCCNC(=O)N(C)C[C@@H]1Oc2ncc(-c3ccccc3F)cc2C(=O)N([C@H](C)CO)C[C@H]1C	6	5
COCCNC(=O)C[C@@H]1C[C@H]2c3cc(NC(=O)CN(C)C)ccc3O[C@H]2[C@@H](CO)O1	4	6
O=C(C[C@@H]1C[C@@H]2c3cc(NC(=O)c4cccnc4)ccc3O[C@@H]2[C@H](CO)O1)NCc1ccccn1	4	-2
O=C(C[C@H]1C[C@H]2c3cc(NC(=O)C4CCC4)ccc3O[C@H]2[C@H](CO)O1)NC1CCCC1	8	7
CC(C)CC#Cc1ccc2c(c1)O[C@H](CN(C)C(=O)c1cnccn1)[C@@H](C)CN([C@H](C)CO)S2(=O)=O	9	-12
O=C(c1cnccn1)N1CC(=O)N2[C@@H](CO)[C@@H](c3ccc(C#CC4CC4)cc3)[C@@H]2C1	7	1
OC[C@@H]1[C@H](c2ccc(C3=CCCC3)cc2)[C@@H](CNC2CCCC2)N1CC1CC1	-22	-4
COc1ccc([Si](C)(C)[C@@H]2[C@@H](CCn3cc(CCO)nn3)O[C@]3(C(=O)N(Cc4cccc(N5CCOC5=O)c4)c4ccccc43)[C@H]2C)cc1	u	x
COc1ccc(CNC(=O)C[C@@H]2CC[C@@H](NC(=O)CN(C)C)[C@H](CO)O2)cc1	3	6
Cc1ccc(S(=O)(=O)N(C)C[C@@H]2Oc3c(NC(=O)c4cnccn4)cccc3C(=O)N([C@H](C)CO)C[C@@H]2C)cc1	18	18
C[C@H](CO)N1C[C@H](C)[C@H](CN(C)C(=O)Nc2ccc(C(F)(F)F)cc2)Oc2ccc(NS(=O)(=O)c3cccs3)cc2CC1=O	8	13
COc1ccc(NC(=O)N(C)C[C@@H]2Oc3ccc(NS(=O)(=O)c4c(C)noc4C)cc3C(=O)N([C@@H](C)CO)C[C@H]2C)cc1	24	17
CC(C)CC#Cc1ccc2c(c1)O[C@@H](CN(C)Cc1ccc3c(c1)OCO3)[C@@H](C)CN([C@H](C)CO)S2(=O)=O	-27	-28
O=C(C1CCCC1)N1CC(=O)N2[C@H](CO)[C@@H](c3ccc(C#CC4CCCC4)cc3)[C@@H]2C1	u	x
COCC#Cc1cnc2c(c1)C(=O)N([C@@H](C)CO)C[C@@H](C)[C@H](CN(C)C(=O)Cc1ccncc1)O2	19	14
CCCC#Cc1ccc([C@@H]2[C@@H](CO)N(C(=O)C3CC3)[C@H]2C#N)cc1	-4	14
Cc1ccc(CN(C)C[C@@H]2OCc3cnnn3CCCC(=O)N([C@H](C)CO)C[C@@H]2C)cc1	-3	5
CCCC#Cc1ccc([C@H]2[C@H](C#N)N(C(=O)C3CCC3)[C@H]2CO)cc1	-5	-6
O=C(C[C@@H]1CC[C@H](NC(=O)c2ccc3c(c2)OCO3)[C@H](CO)O1)NCc1ccc(Cl)cc1	2	10
CN1[C@@H]2c3ccc(-c4ccc(F)cc4)c(=O)n3C[C@@H]2[C@@H](CO)[C@@H]1C(=O)NCc1ccccn1	12	9
COc1ccc(CNC(=O)C[C@@H]2C=C[C@H](NC(=O)CN(C)C)[C@H](CO)O2)cc1	1	18
COc1ccc(NC(=O)N(C)C[C@@H]2OCCCC[C@H](C)Oc3ccc(NS(C)(=O)=O)cc3C(=O)N([C@H](C)CO)C[C@@H]2C)cc1	16	10
C[C@H]1CCCCO[C@@H](CN(C)C(=O)c2ccncc2)[C@@H](C)CN([C@@H](C)CO)C(=O)c2cc(NS(=O)(=O)c3cn(C)cn3)ccc2O1	32	12
O=C(C[C@H]1CC[C@H]2[C@@H](COC[C@H](O)CN2Cc2cocn2)O1)NCc1cccc(F)c1	4	10
N#Cc1cccc(-c2ccc([C@@H]3[C@@H](CO)N4CCCCN(C(=O)Cc5ccncc5)C[C@H]34)cc2)c1	9	3
CCCNC(=O)C[C@H]1CC[C@H]2[C@H](COc3ccc(NC(=O)c4cccc(OC)c4)cc3C(=O)N2C)O1	16	15
O=C(O)C[C@H]1C=C[C@@H](NC(=O)CCN2CCCCC2)[C@@H](CO)O1	11	8
C[C@@H]1CN([C@H](C)CO)C(=O)c2cccc(NC(=O)c3ccncc3)c2O[C@H]1CN(C)C(=O)Nc1ccccc1	31	12
C[C@@H]1CN([C@H](C)CO)S(=O)(=O)c2ccc(C#CC3CC3)cc2O[C@@H]1CN(C)C(=O)CC1CC1	-17	-15
C[C@H]1CN([C@@H](C)CO)S(=O)(=O)c2ccc(-c3cccc(F)c3)cc2O[C@H]1CN(C)C	-10	-8
COCC(=O)N(C)C[C@@H]1Oc2ncc(-c3cccc(OC)c3)cc2C(=O)N([C@H](C)CO)C[C@H]1C	6	1
O=C(O)C[C@H]1C[C@H]2c3cc(NC(=O)CC4CC4)ccc3O[C@H]2[C@@H](CO)O1	2	3
CC(C)C#Cc1cnc2c(c1)C(=O)N([C@@H](C)CO)C[C@H](C)[C@@H](CN(C)C(=O)c1cnccn1)O2	38	19
Cc1noc(C)c1NC(=O)N(C)C[C@@H]1Oc2ccc(NC(=O)Nc3ccc4c(c3)OCO4)cc2C(=O)N([C@H](C)CO)C[C@H]1C	3	3
